VDR inh: inhibitors of human vitamin D receptor. AID 504847. Potency, µM, for inactives: max response, negative = inhibition, actives largely listed as inhibitors. VDR-SRC2-3 peptide fluorescence polarization, 2 h. actives 0.93% (n = 400,000). P11473; active = well fitted inhibition curve with a large enough effect; inconclusive = small, poorly fitted or top-dose-only effect, or another doubt; inactive = no such curve, though single readings can be large or run the other way; note: series mostly up to about 120 µM
Target sequence (P11473 whole entry, looked up): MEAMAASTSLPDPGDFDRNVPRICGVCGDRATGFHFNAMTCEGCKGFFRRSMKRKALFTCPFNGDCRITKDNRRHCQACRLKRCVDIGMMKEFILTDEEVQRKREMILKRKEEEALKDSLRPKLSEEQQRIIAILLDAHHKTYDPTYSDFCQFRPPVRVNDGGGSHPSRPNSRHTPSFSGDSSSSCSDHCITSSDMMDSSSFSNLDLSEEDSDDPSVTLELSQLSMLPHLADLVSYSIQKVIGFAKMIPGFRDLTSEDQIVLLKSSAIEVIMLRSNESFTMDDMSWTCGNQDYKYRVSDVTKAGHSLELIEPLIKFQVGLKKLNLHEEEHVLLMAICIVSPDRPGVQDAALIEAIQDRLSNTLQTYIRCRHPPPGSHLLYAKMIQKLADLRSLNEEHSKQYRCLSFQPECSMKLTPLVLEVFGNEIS
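The screen uses fluorescence polarization to detect compounds that interfere with recruitment of the SRC2-3 coactivator peptide to VDR; plates are read after 2 h at room temperature.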
* = called active by the depositor; ? = inconclusive; & = joins results of further samples; [ ] = another dose, or the depositor's remark. % is set by controls: 0 for no effect and ±100 for the full control effect; potency is the fitted concentration of half-maximal effect. Only part of the results is shown, so the mix of outcomes need not match the whole.

SMILES	VDR inh
Cc1nccn1Cc1cccc2ccccc12	-3%
COC(CNC(=O)c1c[nH]c2ccc(S(=O)(=O)N(C)c3ccc(F)cc3)cc2c1=O)OC	-3%
Nc1nnc(C(=O)c2ccccc2N)s1	9%
COc1ccccc1C(C#N)N1N=C(C)CC1c1ccccc1 (stereo not given)	-30%
COc1ccc(C2c3[nH]c4ccccc4c3C[C@H]3C(=O)N(c4ccccc4C(=O)N4CCC(C(=O)O)CC4)C(=O)N23)cc1 (stereo not given in full)	-6%
COc1cccc(NC(=O)CCN2CCN(c3ccccc3F)CC2)c1	7%
CCOC(=O)CCCNC(=O)CCNC(=O)c1ccc(OC)cc1	4%
CCOc1cc(/C=C2/C(=N)N3OC(C)=CC3=NC2=O)ccc1OC(=O)c1ccco1	7%
O=C(COC(=O)CSc1ccc([N+](=O)[O-])cc1)NCCC1=CCCCC1	-25%
O=C(NCc1ccccc1)NCc1cccs1	8%
COc1cccc(NC(=O)C(=O)NCCc2csc3nc(-c4ccccc4C)nn23)c1	6%
O=c1c(F)cn(C2CCCO2)c(=O)n1Cc1ccccc1F (stereo not given)	-1%
O=C(C1CCCCC1)N1CCN(S(=O)(=O)c2ccc(Br)cc2)CC1	11%
CC1CCN(C(=O)COC(=O)Cn2cnc3ccccc32)CC1	?
C/C(=N\NC(N)=O)c1ccc(Cl)s1	-3%
CCCc1nnc(SCC(=O)Nc2ccccc2F)o1	-15%
Cn1c2ccccc2c2nnc(NN)nc21	0%
O=C(CCNC(=O)C1CCN(S(=O)(=O)c2ccccc2)CC1)NCc1cccc(Cl)c1	-8%
Cc1ccc(S(=O)(=O)N2CCN(C(=O)CSc3nc4ccccc4c(=O)[nH]3)CC2)c(C)c1	-8%
O=C(COC(=O)CNC(=O)C1CCCCC1)Nc1ccc(Cl)cc1F	6%
CC(C)(C)NC(=O)CSc1nnc(Cc2ccc3c(c2)OCO3)n1C1CCCCC1	5%
CCC(=O)Nc1cc(-c2nnc(OC)c3ccccc23)ccc1N1CCOCC1	-14%
CCn1c(=O)c2cc(C(=O)NCCC(C)C)sc2c2ccccc21	-16%
CCOc1ccc(NS(=O)(=O)c2c(C(=O)N3CCCCCC3)c(C)n(C)c2C)cc1	-10%
COc1cccc(CNC(=O)C2CCCN(c3nn4cc(-c5ccc(C)cc5)nc4s3)C2)c1 (stereo not given)	33%[activator]
CC(C)(C)NC(=O)C(=O)N/N=C/c1ccc(Br)cc1	-18%
CC(C)(C)OC(=O)N1CC=C2C(C#N)=C(N)C(C#N)(C#N)[C@H](c3cccnc3)[C@H]2C1	?
Cc1cc(Cl)ccc1NC(=O)c1cccc(NC(=O)N2CCSc3ncccc32)c1	5%
Cc1nc(NC(=O)COC(=O)C2=NNC(=O)CC2)c(Cl)cc1Cl	-7%
CN(C)C(=O)C1CC(=O)OC12CCCCC2 (stereo not given)	0%
COc1ccccc1C(=O)NC1CCCCCCC1	0%
CCN(CC)S(=O)(=O)c1ccc(N2CCCC2)c(NC(=O)c2c(-c3ccccc3)noc2C)c1	-6%
CCCCSc1nc(SCC(=O)NCc2ccco2)c2c3c(sc2n1)COC(C)(CC)C3 (stereo not given)	-14%
COc1ccc(CNS(=O)(=O)CCNCc2ccco2)cc1	-13%
CCC(C)(C)NC(=O)C(c1ccc(O)cc1)N(CCOC)C(=O)CCC(=O)Nc1nccs1 (stereo not given)	10%
Cc1c(C(=O)OCc2nc3ccsc3c(=O)[nH]2)oc2ccccc12	-22%
CCOc1ccc(C2C(C#N)=C(N)SC(N)=C2C#N)c(OCC)c1	?
C=CCN1CCN(Cc2cnc(Cl)s2)CC1	3%
Cc1ccc(N(C)S(=O)(=O)c2ccc3c(c2)NC(=O)C(C)S3)cc1 (stereo not given)	-7%
CC(Sc1nc(-c2ccccc2)cc(C(F)(F)F)n1)C(=O)N1CCOCC1 (stereo not given)	-11%
CCOc1ccc(C2c3c(oc4ccccc4c3=O)C(=O)N2c2nnc(C)s2)cc1OC (stereo not given)	-1%
COc1ccccc1CNC(=O)CNC(=O)c1ccc(Br)o1	-7%
COCCNC(=O)C(c1ccco1)N(C(=O)Cn1nnc2ccccc21)c1cc(C)ccc1C (stereo not given)	?
Cc1cc(NC(=O)CSc2nc(-c3cccc(F)c3)nc3c2c(=O)n(C)c(=O)n3C)no1	0%
CNC(=S)Nc1cc(OC)c(NC(=O)c2ccco2)cc1OC	3%
Cc1ccc(CNC(=O)C2CCC(CNS(=O)(=O)c3cccc4cccnc34)CC2)cc1 (stereo not given)	5%
Cc1onc(NC(=O)CSCC(=O)O)c1Br	-2%
CN(Cc1ccc([N+](=O)[O-])cc1)c1ccccc1	?
O=C(CNc1ccccc1)NNC1=NCCC1	1%
CCN(CC)CCCN1C=C2C(=O)C(C)(OC(=O)CCC(=O)OC)C(=O)C=C2C=C1C1CC1 (stereo not given)	-14%
(further entries)
SMILES	VDR inh
CC(Sc1ncn[nH]1)C(=O)c1c(N)n(C)c(=O)n(C)c1=O (stereo not given)	0%
CC1CCCC(C)N1CCCNC(=O)c1cc2c(s1)-c1ccccc1OC2 (stereo not given)	-4%
O=C(NNC(=O)C(c1ccccc1)c1ccccc1)c1cccs1	7%
Cc1nc2c(C(=O)NCc3ccccc3)c[nH]n2c(=O)c1Cc1ccccc1Cl	9%
CCOC(=O)COn1c(-c2cccc(Cl)c2)nc2ccc([N+](=O)[O-])cc21	-10%
CCCc1nc2ccccc2n2c(-c3ccccc3)c3c(=O)n(C)c(=O)n(C)c3c12	10%
COc1ccccc1/C=C/C(=O)NNC(=O)c1cccs1	-4%
O=C(/C=C/c1ccc(OCCCF)cc1)Nc1ccnc(-c2ccncc2)n1	5%
Cc1cccc(NC(=O)CCc2nnc3ccc(NCc4ccco4)nn23)n1	-10%
Cc1ccc(NC2CCCN(C(=O)c3ccccn3)C2)cc1C (stereo not given)	-11%
COC(=O)c1cc(OC)c(OC)cc1NC(=O)c1c(-c2ccccc2)noc1C	2%
CC1=CC(C)(C)NC(=S)N1c1ccc([N+](=O)[O-])cc1	8%
COc1ccc(CC(=O)OC(C)C(=O)Nc2ccc(Cl)cn2)cc1 (stereo not given)	-2%
COCCNC(=O)CN(C(=O)CCC(=O)Nc1nccs1)c1ccc2c(c1)OCO2	-7%
COCC(C)n1c(SCC(=O)NC(=O)NCc2ccccc2)nc2ccccc2c1=O (stereo not given)	-15%
CC(NC(=O)C12CC3CC(C1)CC(n1cncn1)(C3)C2)C12CC3CC(CC(C3)C1)C2 (stereo not given)	9%
CCOC(=O)c1oc2nc3c(cc2c1N)CCCC3	13%
COc1ccc(-n2c(C)nc3cc(C(=O)NC4CCCC4)ccc32)cc1	?
Cc1cc(Nc2ccccc2)c2c([N+](=O)[O-])c(C)cc(C)c2n1	-7%
CCNc1nc(NC(C)C)nc(OCC)n1	-6%
COC(=O)C1C(c2ccc(Br)cc2)Nc2nnc(C(F)(F)F)n2C1(C)O (stereo not given)	-5%
CCOc1ccc(N=CC2=C(O)CC(c3ccco3)CC2=O)cc1 (stereo not given)	-15%
CC1(C)Cc2ccccc2C(c2cc3ccccc3oc2=O)=N1	-13%
Cc1csc2nc(CN3CCN(CC(=O)N(C)C)CC3)cc(=O)n12	-5%
CCOC(=O)c1cnc2c(C(=O)OCC)cnn2c1N	1%
COc1ccc(-n2c(=O)c(-c3cccs3)nc3cnc(Nc4cccc(OC)c4)nc32)cc1	-3%
Cc1ccc(N2C(=O)c3cccc([N+](=O)[O-])c3C2=O)cc1C	-26%
OCCCn1c(-c2ccccc2)n[nH]c1=S	14%
CN1C(=O)c2ccccc2C(C(=O)O)C1c1cn(C)c2ccccc12 (stereo not given)	?
Cc1ccc(/C=N/NC(=O)CSc2nc3ccccc3n2C)s1	-25%
O=C1c2ccccc2CN1CCNC(=S)NC1CCCCC1	5%
CCN1C(=O)C(=O)N(CC(=O)NC(C)CCc2ccccc2)C1=O (stereo not given)	3%
COCc1ccc(C(=O)N2CCCC(Nc3ccc(C(C)C)cc3)C2)o1 (stereo not given)	0%
COc1cccc(NC(=O)CN(C)CC(=O)c2c(C)[nH]c3ccccc23)c1	-2%
CC1CC(C)CN(C(=O)/C(=C\c2ccccc2)c2ccccc2)C1 (stereo not given)	-10%
CCOc1ccc(-n2c(-c3ccc(C)cc3)nc3c(cnn3-c3ccccc3)c2=O)cc1	31%[activator]
COc1cccc(-c2nnc(NC(C)=O)o2)c1	-17%
Cc1nn(CC(=O)N(C)Cc2ccccc2)c(=O)c2cccn12	3%
Cc1cc(C)cc(NC(=O)N2CCC(N3CCCCC3)CC2)c1	10%
CCC(C)(C)NC(=O)CN(Cc1ccc(F)cc1)C(=O)CCC(=O)Nc1ccccn1	-27%
O=[N+]([O-])c1ccc(/C=C/c2nc3ccc([N+](=O)[O-])cc3[nH]2)cc1	8%
Cn1c(=O)c2c(nc(N/N=C/c3cccs3)n2C)n(C)c1=O	-6%
COCCN(C(=O)c1cc2c(s1)CCCCC2)c1c(N)n(Cc2ccccc2)c(=O)[nH]c1=O	-16%
CCc1ccc(C(C)NC(=O)c2cccs2)cc1 (stereo not given)	-2%
COc1cccc(O[C@@H]2O[C@@H]3COC(C)(C)O[C@H]3[C@H](O)[C@H]2NC(C)=O)c1	-20%
COc1ccc(N2CC(C(=O)OCC(=O)c3ccc(C)cc3)CC2=O)cc1 (stereo not given)	-4%
COc1ccc(CN=C2NC(=O)CC(C(=O)Nc3ccccc3C)S2)cc1 (stereo not given)	4%
CC(C)(C)OC(=O)N1CCC[C@H]1C(=O)NCc1ccc(Cl)cc1Cl	?
Cc1ccc(NC(=O)c2cccc(S(=O)(=O)Nc3c(C)n(C)n(-c4ccccc4)c3=O)c2)cc1C	-6%
COc1cc(OC)cc(C(=O)N2CCCC(c3nc(-c4ccc(C)o4)no3)C2)c1 (stereo not given)	-14%

Grouped by structure, the entries above with a Cl atom
SMILES	VDR inh
C/C(=N\NC(N)=O)c1ccc(Cl)s1	-3%
O=C(CCNC(=O)C1CCN(S(=O)(=O)c2ccccc2)CC1)NCc1cccc(Cl)c1	-8%
O=C(COC(=O)CNC(=O)C1CCCCC1)Nc1ccc(Cl)cc1F	6%
Cc1cc(Cl)ccc1NC(=O)c1cccc(NC(=O)N2CCSc3ncccc32)c1	5%
Cc1nc(NC(=O)COC(=O)C2=NNC(=O)CC2)c(Cl)cc1Cl	-7%
C=CCN1CCN(Cc2cnc(Cl)s2)CC1	3%
Cc1nc2c(C(=O)NCc3ccccc3)c[nH]n2c(=O)c1Cc1ccccc1Cl	9%
CCOC(=O)COn1c(-c2cccc(Cl)c2)nc2ccc([N+](=O)[O-])cc21	-10%
COc1ccc(CC(=O)OC(C)C(=O)Nc2ccc(Cl)cn2)cc1 (stereo not given)	-2%
CC(C)(C)OC(=O)N1CCC[C@H]1C(=O)NCc1ccc(Cl)cc1Cl	?

Reprinted at random: 3 entries already listed, in no set order.
SMILES	VDR inh
CC(C)(C)OC(=O)N1CCC[C@H]1C(=O)NCc1ccc(Cl)cc1Cl	?
Cc1ccc(NC(=O)c2cccc(S(=O)(=O)Nc3c(C)n(C)n(-c4ccccc4)c3=O)c2)cc1C	-6%
Cn1c(=O)c2c(nc(N/N=C/c3cccs3)n2C)n(C)c1=O	-6%

Later entries:
SMILES	VDR inh
CSc1cccc(NC(=O)c2nnn(CC(=O)Nc3cc(C)cc(C)c3)c2N)c1	?
O=C(OCc1cccc([N+](=O)[O-])c1)c1cccnc1Cl	4%
COc1cccc(CNC(=O)CCNS(=O)(=O)c2cccc3nsnc23)c1	5%&-7%
CCOC(=O)C1(CCc2ccccc2)CCN(C(=O)C(C)n2cncn2)CC1 (stereo not given)	3%
O=S(=O)(Nc1ccccc1N1CCCCC1)c1ccc(F)cc1F	-14%
COc1ccc(C)cc1NC(=O)C(Sc1nnnn1C)c1ccccc1 (stereo not given)	8%
O=C(Cc1ccc([N+](=O)[O-])cc1)N/N=C/c1ccccc1F	-8%
Cn1cc(S(=O)(=O)c2cccc(Cl)c2)c(=O)c2cc(F)c(N3CCN(c4ccc(F)cc4)CC3)cc21	3%
O=C(C=C1SCCS1)/C=C/c1ccco1	-15%
O=C(Nc1ccc(-c2nc3ccccc3s2)c(O)c1)c1ccc(Br)cc1	-12%
CS(=O)(=O)NN1C(=O)c2ccccc2NC1c1cccc2cccnc12 (stereo not given)	-1%
COC(=O)c1ccc(NC(=S)NC(=O)C2CCC2)cc1	?
COC(=O)c1ccc(OC(=O)CN2C(=O)c3ccccc3C2=O)cc1	-19%
C/C=C/c1ccc(OCCCn2cncn2)c(OC)c1	6%
Cn1c(CS(=O)Cc2c(Cl)cccc2Cl)nnc1SCc1c(Cl)cccc1Cl (stereo not given)	-1%
COc1ccccc1CNC(=O)CN1C(=O)NC2(CCCC2)C1=O	-17%
Cn1c(=NC(=O)COc2ccccc2)sc2ccccc21	2%
O=[N+]([O-])c1cccc(S(=O)(=O)Nc2cccc(-c3ccc(N4CCCC4)nn3)c2)c1	-13%
O=c1[nH]c(CO)nc2c1oc1ccccc12	5%
CC1=C(C(=O)OC2CCCC2)C(c2ccc(C)o2)C2=C(CC(c3cccs3)CC2=O)N1 (stereo not given)	3%
Cn1nnnc1SCC(=O)Nc1ccccc1[N+](=O)[O-]	21%
COC(=O)C1=C(C)NC(C)=C(C(=O)OC)C1C(=O)OCCN1C(=O)c2ccccc2C1=O	-6%&9%
OCCN1CCN(c2ncnc3sc4c(c23)CCCC4)CC1	-4%
COc1ccc(NS(=O)(=O)c2cccc(C(=O)NNC(=O)CNC(=O)c3cccc(C)c3)c2)cc1	?
Cc1cc(NC(=O)Nc2cccc(C(F)(F)F)c2)no1	13%
O=C(Nc1cccc(C(F)(F)F)c1)C1CCCCC1	-10%
CCNC(=O)NC(=O)C(C)Oc1ccc(C(=O)OC)cc1 (stereo not given)	-6%
Cc1ccc(CN2CCSc3ccc(C(=O)Nc4ccc(Cl)cc4)cc32)cc1	-8%
Cc1noc(C(C)C)c1C(=O)Nc1ccc(-c2nnc3n2CCCCC3)cc1	-15%
O=C(NCCc1ccccc1)C(=O)NN=C1CCCC1	-14%
CN1C(=O)CSC1=Nc1ccc(Br)cc1	0%

High-throughput results (PubChem)
